Compound activity (PubChem)
Cruzain Triton: cruzain (T. cruzi) inhibition with detergent; AID 1478; P25779; purified cruzain, Z-FR-AMC fluorescence, 0.01% Triton; 0.43% of 200,000 active; Potency, µM, for inactives: max response, negative = inhibition, hits mostly inhibitors;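 note: plate controls were neutral wells for no effect and buffer without enzyme for full effect; nearly all actives have a fitted effect of over 40% in size; top concentration of the series not given in the record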
Target sequence (P25779 123-467 limits assumed): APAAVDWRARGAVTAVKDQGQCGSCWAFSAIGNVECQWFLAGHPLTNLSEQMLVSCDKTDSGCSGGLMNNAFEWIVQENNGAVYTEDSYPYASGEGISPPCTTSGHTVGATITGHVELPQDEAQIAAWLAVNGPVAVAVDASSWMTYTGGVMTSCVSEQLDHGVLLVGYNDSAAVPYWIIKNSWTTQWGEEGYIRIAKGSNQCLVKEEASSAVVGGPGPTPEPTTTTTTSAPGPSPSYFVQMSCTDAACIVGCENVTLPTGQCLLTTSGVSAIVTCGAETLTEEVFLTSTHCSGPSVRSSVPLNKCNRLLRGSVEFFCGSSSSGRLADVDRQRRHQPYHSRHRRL
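15 min RT preincubation of 1.5 nM cruzain with compound, then 2 uM Z-FR-AMC added; kinetic AMC fluorescence, 60 s delta. Triton X-100 0.01%, pH 5.5.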
Marburg entry inh: inhibitors of Marburg virus binding or cell entry; Marburg virus pseudotyped entry inhibition, cell reporter; control for the full effect not named in the record; about a third of the inactives were read at about 46 µM; Potency, µM (top dose mostly 37.8 µM), for inactives: top-dose activity change, negative = inhibition, actives largely listed as inhibitors; 1.8% of 300,000 active; active = well fitted inhibition curve with a large enough effect; inconclusive = small, poorly fitted or top-dose-only effect, or effect the other way; inactive = flat fitted curve, though single readings scatter; tested in HEK293 cells; about a fifth of its hits are not listed in these tables; note: % is set by controls: 0 for no effect and ±100 for the full control effect; luciferase read-out
NS1 inh: influenza NS1 inhibition; S. cerevisiae slowed by influenza A NS1, growth recovery by OD600; Potency, µM (series often up to 46.1 µM), without a hit: at the highest dose activity, positive = more growth; 0.4% of 270,000 active; AID 2326; active means well fitted rising curve with a large enough effect; inconclusive means small, poorly fitted or top-dose-only effect; inactive means no such curve, though single readings can be large or run the other way; note: nearly all actives have a fitted effect of over 50% in size
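A cell-based growth assay was used: compounds that relieve NS1-induced slow growth of budding yeast raise OD600. Assay medium was yeast nitrogen base with ammonium sulphate and -URA supplement, pH 6.0, with 2% galactose.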
RE007 growth inh: less growth of the S. pombe RE007 Vpr strain; S. pombe RE007 Vpr strain, BacTiter-Glo ATP luminescence, 24 h; control for the full effect not named in the record; Potency, µM (titrated, usually from 92.2 µM), for the others: top-dose activity change, negative = less growth; 0.21% of 360,000 active; AID 651644; active = well fitted falling curve with a large enough effect; inconclusive = small, poorly fitted or top-dose-only effect; inactive = no such curve, though single readings can be large or run the other way;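 note: % is set by controls: 0 for no effect and ±100 for the full control effect; nearly all actives have a fitted effect of over 50% in size; the assay follows cell death caused by Vpr and the record does not say whether a fall means rescue or toxicity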
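Fission yeast strain RE007, carrying one chromosomally integrated HIV-1 vpr copy, was seeded at OD 0.01 in PMG+AL medium with 23 nL pinned compound. After 24 h at 30 °C and 99% humidity, viability was read by BacTiter-Glo luminescence.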
2A StopGo: lowers the luciferase signal of an FMDV 2A StopGo reporter. human cells with a luciferase reporter of 2A StopGo recoding; control for the full effect not named in the record. Potency, µM (titrated, usually from 57.9 µM), for the others: at the top dose signal change, negative = less light. 1.2% of 410,000 active. AID 1159524; active = well fitted falling curve with a large enough effect; inconclusive = small, poorly fitted or top-dose-only effect; inactive = no such curve, though single readings can be large or run the other way; tested in HEK293T cells; note: % is set by controls: 0 for no effect and ±100 for the full control effect; nearly all actives have a fitted effect of over 45% in size; luciferase light after 4 h
SARS PLpro yeast: blocks SARS-CoV papain-like protease in a yeast assay | S. cerevisiae expressing SARS-CoV PLpro, growth rescue; control for the full effect not named in the record | Potency, µM (top dose mostly 32.9 µM), for inactives: top-dose activity, positive = growth rescue | 0.19% of 330,000 active; active means well fitted rising curve with a large enough effect; inconclusive means small, poorly fitted or top-dose-only effect; inactive means no such curve, though single readings can be large or run the other way; note: 0% is about no effect; nearly all actives have a fitted effect of over 55% in size; growth read by luminescence after 48 h
LASV entry inh: blocks Lassa virus binding to or entry into cells; Lassa virus pseudotype entry inhibition, cell reporter; control for the full effect not named in the record; Potency, µM (top dose mostly 37.9 µM), for inactives: top-dose activity change, negative = inhibition, most hits filed as inhibitors; 1.2% of 300,000 active; active means well fitted inhibition curve with a large enough effect; inconclusive means small, poorly fitted or top-dose-only effect, or effect the other way; inactive means flat fitted curve, though single readings scatter; tested in HEK293 cells; note: % is set by controls: 0 for no effect and ±100 for the full control effect; nearly all actives have a fitted effect of over 50% in size; luciferase read-out
Cruzain inh noDet: blocks cruzain activity in detergent-free assay; P25779; purified cruzain, Z-FR-AMC fluorescence, no detergent; Potency, µM, for the others: max response, negative = inhibition, hits mostly inhibitors; 2.3% of 200,000 active; AID 1476;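 note: plate controls were enzyme without inhibitor for no effect and buffer without enzyme for full effect; nearly all actives have a fitted effect of over 40% in size; top concentration of the series not given in the record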
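Detergent-free condition (0.00005% Triton X-100) in acetate buffer pH 5.5 with DTT. 1.5 nM enzyme and compound were pre-mixed 15 min, then 2 uM Z-FR-AMC substrate added; reaction progress from fluorescence change between first and third reads (60 s).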
Numbers without * were called inactive; ? = inconclusive; · = not tested or not shown; & = joins results of further samples; [ ] = dose if it differs, or a comment. Unless noted, calls come from the whole dose curve; as a rule, active = well fitted curve in the direction sought with a large enough effect; inconclusive = small, poorly fitted or top-dose-only effect, or another doubt; inactive = no such curve, though single readings can be large; an effect the other way counts as inactive or inconclusive. Potency is the fitted concentration of half-maximal effect.

SMILES	Cruzain Triton	Marburg entry inh	NS1 inh	RE007 growth inh	2A StopGo	SARS PLpro yeast	LASV entry inh	Cruzain inh noDet
COC(=O)Oc1ccc(/C=C/C(=O)OC(C)C)cc1OC(=O)OC	-6.6%	?	-11%	5%	-5%	-28%	-7%	-4%
COc1ccccc1-c1cc(C(=O)Nc2sc3c(c2C#N)CCCC3)no1	-1.3%	7%[46.1 µM]	·	·	-24%	·	?	-8%
CCN(CC)c1ccc(-c2nn3c(-c4n[nH]c5c4CCC5)nnc3s2)cc1	-1.5%	·	-68%	-11%	-27%	-7%	?	0%
CCOc1ccccc1CNC(=O)c1ccc(NC(=O)N2CC(C)Sc3ccccc32)cc1 (stereo not given)	-3.4%	?	·	·	-24%	·	?	?
c1ccc(-n2nnnc2N2CCOCC2)cc1	3.0%	6%[46.1 µM]	5%	-4%	-9%	8%	10%	3%
CC(C)c1nn2c(=O)cc(O)nc2s1	0.2%	-2%	1%	2%	-4%	21%	-1%	8%
CC(C)CNC(=O)c1c(N)n(/N=C/c2ccccn2)c2nc3ccccc3nc12	-3.0%	1%&0%	8%	-7%	?	-1%	-2%	11%
COc1ccccc1CNC(=O)CNC(=O)N1CC(=O)Nc2ccccc21	·	·	-7%	-6%	-11%	0%	·	·
CC(C)CN(C(=O)c1ccc(=O)n(C)n1)c1c(N)n(Cc2ccccc2)c(=O)[nH]c1=O	·	-2%	·	-9%	-4%	·	4%	·
O=C(O)CC1c2ccccc2CCN1S(=O)(=O)c1ccccc1 (stereo not given)	·	7%[46.1 µM]	·	22%	9%	·	9%	·
CC1C(=O)Nc2ccc(S(=O)(=O)N3CCN(c4cccc(Cl)c4)CC3)cc2NC1=O (stereo not given)	·	·	5%	-5%	?	-4%	·	·
COCCNC(=O)C(c1ccccc1C)N(C(=O)Cn1nnc2ccccc21)c1cccnc1 (stereo not given)	1.0%	15%	8%	0%	5%	-18%	?	-5%
CCC(=O)Nc1c(C)cc(C)cc1Cl	4.4%	10%	10%	18%	-15%	2%	1%	-6%
COc1cccc(NC(=O)N(Cc2cc3cc(C)cc(C)c3[nH]c2=O)CC2COCCO2)c1 (stereo not given)	-4.7%	-20%	-5%	3%	-26%	8%	1%	?
O=C(NCc1ccccc1Cl)c1ccc(NC(=O)N2CCSc3ccccc32)cc1	-6.8%	14%[46.1 µM]	·	·	-2%	·	-10%[46.1 µM]	-13%
Cc1cc(C)cc(-n2ccnc2SCC(=O)Nc2ccc(C)cc2C)c1	4.0%	·	·	·	-24%	·	?	?
COc1cc(CC(=O)OCC(=O)N2CCCCC2)cc(OC)c1OC	·	8%	3%	2%	-7%	1%	12%	·
Cc1ccccc1N=C1NC(=O)CS1	0.7%	0%	2%	4%	-13%	-2%	14%	5%
COc1ccccc1CCC(=O)Nc1ccc(S(=O)(=O)Nc2cc(C)nc(C)n2)cc1	·	?	·	8%	34%[activator]	0%	-15%	·
COc1ccc(C(c2c(C)n(C)n(-c3ccccc3)c2=O)c2c(C)n(C)n(-c3ccccc3)c2=O)cc1O	-1.0%	-28%&-28%[46.1 µM]	·	·	-21%	1%	-9%[46.1 µM]	-3%
Cc1c(Cl)cnc(NC(=O)CSc2nnc(C)n2Cc2ccccc2)c1Cl	-3.1%	8%	0%	5%	-22%	1%	-23%	-11%
Cc1cc(C)c2c(n1)nn1c(N3CCN(Cc4ccccc4)CC3)cc(C)nc21	-24%	?	1%	-3%	-14%	-3%	-6%	-28%
Cc1ccccc1C(=O)c1cccn1CC(=O)NCC(C)c1ccccc1 (stereo not given)	·	·	-12%	-7%	-8%	0%	·	·
O=C(COC(=O)Cc1ccc(Br)cc1)NCC1CCCO1 (stereo not given)	·	26%	·	-15%	0%	8%	-12%	·
O=C(O)CCCNc1ccc(S(=O)(=O)N2CCCCC2)cc1	·	2%[46.1 µM]	-7%	18%	13%	0%	2%	·
Next section:
SMILES	Cruzain Triton	Marburg entry inh	NS1 inh	RE007 growth inh	2A StopGo	SARS PLpro yeast	LASV entry inh	Cruzain inh noDet
CC(C)NC(=O)COCc1cc(-c2ccc3c(c2)OCO3)on1	·	25%	0%	1%	39%[activator]	0%	?	·
Cc1nnc(NCc2ccncc2)c2ccccc12	1.4%	4%	21%	-12%	-5%	-1%	-10%	-7%
C/C(=N/NC(=O)c1ccc(Cl)s1)c1ccc(NC(=O)COc2ccc(Cl)cc2)cc1	-5.0%	·	14%	-12%	-16%	-6%	0%	20µM*
Cc1ccc(-c2nn(CC(=O)NCc3ccccn3)c(=O)c3ccccc23)cc1S(=O)(=O)N(C)C	·	13%[46.1 µM]	·	-2%	-30%	-1%	-3%	·
C=C(C)CNC(=S)N=Nc1c(O)[nH]c2ccc([N+](=O)[O-])cc12	·	-16%[46.1 µM]	5%	-7%	-18%	2%	-24%	·
CNc1ncc(C(=O)c2ccc(Cl)c(Cl)c2)s1	-8.9%	?	-42%	?	16%	-16%	?	-11%
NS(=O)(=O)c1ccc(CCNC(=O)C(=O)c2c[nH]c3ccccc23)cc1	-4.1%	?	12%	7%	?	2%	?	5%
O=C(CCNS(=O)(=O)c1cccc2nonc12)NC1CCCCCC1	·	?	·	1%	31%[activator]	4%	1%	·
CC1CCN(CCCNC(=O)C2CCC(CNS(=O)(=O)c3cccc4nsnc34)CC2)CC1 (stereo not given)	·	·	-2%	1%	6%	3%	·	·
Cc1cc(NC(=O)CSc2nnc(C(C)N(C)C)n2-c2ccc(F)cc2)no1 (stereo not given)	·	-4%[46.1 µM]	·	-5%	4%	-1%	6%	·
COCCn1c(SCC(=O)Nc2cc(OC)ccc2OC)nc2c(c1=O)SC(C)C2 (stereo not given)	·	4%[46.1 µM]	-7%	8%	-2%	1%	-2%	·
Cc1cccc(Cn2cnc3c(cnn3-c3ccc(Cl)cc3)c2=O)c1	-0.7%	-21%[46.1 µM]	·	·	-24%	·	?	13%
Cc1ccc(-c2nn(-c3ccccc3)cc2CO)o1	-1.9%	?	-13%	?	49%[activator]	3%	-20%	-16%
O=C(NN1C(=O)C2C(C1=O)C1C=CC2C12CC2)c1ccccc1 (stereo not given)	·	11%	·	4%	-5%	0%	13%	·
COc1cc(OC)c(C2C(C#N)=C(N)OC3=C2C(=O)CC(C)(C)C3)cc1OC (stereo not given)	-2.2%	-5%&-24%	8%	-15%	-14%	-2%	?	-5%
Cn1c(-[n+]2c(-c3ccccc3)cc(-c3ccccc3)cc2-c2ccccc2)nc2cc([N+](=O)[O-])ccc21	-23%	?	-11%	0%	-19%	-39%	2%	-20%
CCCn1c(SCC(=O)Nc2ccccc2Cl)nc(O)cc1=O	·	?	·	21%	-10%	-1%	6%	·
CC(C)(C)SC(=O)CC1NS(=O)(=O)OCC1NC(=O)OCC(Cl)(Cl)Cl (stereo not given)	·	·	14%	-1%	-2%	0%	·	·
COc1ccccc1OCCNC(=O)c1ccc(C(C)(C)C)cc1	·	?	·	-14%	57%[activator]	·	?	·
Cc1ccc(C(=O)c2c(NC(=O)c3ccccc3)sc(C)c2C)cc1	0.9%	5%	12%	6%	1%	-13%	2%	-27%
CCC1(c2ccccc2)NC(=O)N(CC(=O)c2ccc3c(c2)OCO3)C1=O (stereo not given)	·	8%[46.1 µM]	·	-8%	-23%	1%	-11%	·
CCC(C)NC(=O)CSc1ccc(NC(C)=O)cc1 (stereo not given)	-1.5%	-11%[46.1 µM]	-2%	13%	-17%	-3%	-3%	1%
COC(=O)C1=C(C)N(c2ccc(OC)c(OC)c2)C(=O)/C1=C\c1ccco1	·	·	6%	8%	-14%	0%	·	·
O=c1c2c([nH]c3ccccc13)CCCCCC2	3.7%	12%	-65%	3%	-27%	-3%	-1%	-5%
Cc1cc(CN2CCOCC2)c(O)c(C2(C)CCCCC2)c1	-2.8%	-24%	-121%	3%	-17%	-4%	-25%	-1%
(more compounds)
SMILES	Cruzain Triton	Marburg entry inh	NS1 inh	RE007 growth inh	2A StopGo	SARS PLpro yeast	LASV entry inh	Cruzain inh noDet
Cc1cccc(CCNC(=O)C2CCC(CNS(=O)(=O)c3c(C)cc(C)cc3C)CC2)c1 (stereo not given)	-6.0%	·	·	·	-24%	·	?	19%
COc1ccc(NC(=O)N2CCN(c3cccc(C(F)(F)F)c3)CC2)cc1OC	-5.2%	-8%	-1%	-12%	?	1%	-14%	?
CCc1sc(NC(=O)C(C)C)nc1-c1ccccc1	·	2%[46.1 µM]	-17%	-19%	-14%	-2%	?	·
Cc1ccc(NC(=O)NNC(=O)C2CC(c3cccnc3)=NO2)cc1 (stereo not given)	10%	0%	14%	-9%	-13%	5%	5%	2%
COc1ccc(Nc2nc3ccccc3nc2C)cc1	-3.9%	9%	-18%	-14%	·	-5%	3%	-11%
COc1ccc(N2CCN(S(=O)(=O)c3cc4c(cc3C)N(C(C)=O)CCO4)CC2)cc1	·	·	6%	-14%	-7%	-4%	·	·
CCNC(=S)N/N=C/c1c(C)nn(-c2cccc(Cl)c2)c1Cl	0.5%	?	5%	-3%	-17%	-8%	?	-6%
CS(=O)c1ccccc1-c1nc(-c2ccc([N+](=O)[O-])cc2)no1 (stereo not given)	·	-1%[46.1 µM]	·	-13%	11%	·	15%	·
O=C(N1CCN(c2ccc(F)cc2)CC1)C12CC3CC(CC(C3)C1)C2	-18%	-15%	-9%	-21%	-30%	-1%	-28%	6%
O=C(Nc1nc(-c2nc3ccccc3s2)cs1)C1CC1	-3.9%	·	-8%	14%	19%	-8%	·	-16%

4 neighbouring compounds already listed:
SMILES	Cruzain Triton	Marburg entry inh	NS1 inh	RE007 growth inh	2A StopGo	SARS PLpro yeast	LASV entry inh	Cruzain inh noDet
CCNC(=S)N/N=C/c1c(C)nn(-c2cccc(Cl)c2)c1Cl	0.5%	?	5%	-3%	-17%	-8%	?	-6%
CS(=O)c1ccccc1-c1nc(-c2ccc([N+](=O)[O-])cc2)no1 (stereo not given)	·	-1%[46.1 µM]	·	-13%	11%	·	15%	·
O=C(N1CCN(c2ccc(F)cc2)CC1)C12CC3CC(CC(C3)C1)C2	-18%	-15%	-9%	-21%	-30%	-1%	-28%	6%
O=C(Nc1nc(-c2nc3ccccc3s2)cs1)C1CC1	-3.9%	·	-8%	14%	19%	-8%	·	-16%

The order is random, and some 4.7% of all compounds hit somewhere here.
